Arbovirus inh – arbovirus infection inhibition | arbovirus infection cell-based antiviral screen | inhibition, % at 10 µM | 0.37% of 200,000 active;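 active means inhibition from about 30%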;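 further: bluetongue infection of BSR cells; cell survival read as ATP light after 72 h; 0% = infected wells without compound and 100% = uninfected wells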
Mtb H37Rv – M. tuberculosis H37Rv growth inhibitors, H37Rv strain (AID 1626); inhibition, % at 10 µM; hits with a dose series show IC50 in µM; M. tuberculosis H37Rv growth inhibition; higher % means a stronger effect; 0.95% of 220,000 active;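 active means confirmed in a dose series; inconclusive means inhibition above 80% but not taken into the dose series; inactive means below 80% or under 30% at every dose of the series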;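 further: bacteria incubated seven days before Alamar blue readout; 0% = bacteria only wells and 100% = bacteria with antibiotic wells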
Mtb bLac sens – beta-lactam sensitization of Mtb H37Rv; M. tuberculosis H37Rv growth with meropenem, percent inhibition; hits of this screen are not shown here; inhibition, % at 25 µM; 0.27% of 330,000 active; AID 434955;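 active means about 74% or more and at least 40 points above the plate without the antibiotic, then above 30% in a dose series; inconclusive means first-round hits that could not be retested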;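 further: growth measured after seven days incubation then overnight dye step; 0% = bacteria only wells and 100% = bacteria with antibiotic; twin plates without the antibiotic show which effects depend on it; some results filed as inactive read as strong as hits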
RecA intein inh – blocks M. tuberculosis RecA intein splicing; P9WHJ3; 0.75% of 290,000 active; inhibition, %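 (about 9 µM by stock and volumes)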; cell-free RecA intein splicing, fluorescence; in the data active means inhibition above about 30%; inconclusive means no clear call, values can overlap the other calls;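 further: 0% = vehicle wells and 100% = reference inhibitor control wells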
Target sequence (P9WHJ3 whole entry, looked up): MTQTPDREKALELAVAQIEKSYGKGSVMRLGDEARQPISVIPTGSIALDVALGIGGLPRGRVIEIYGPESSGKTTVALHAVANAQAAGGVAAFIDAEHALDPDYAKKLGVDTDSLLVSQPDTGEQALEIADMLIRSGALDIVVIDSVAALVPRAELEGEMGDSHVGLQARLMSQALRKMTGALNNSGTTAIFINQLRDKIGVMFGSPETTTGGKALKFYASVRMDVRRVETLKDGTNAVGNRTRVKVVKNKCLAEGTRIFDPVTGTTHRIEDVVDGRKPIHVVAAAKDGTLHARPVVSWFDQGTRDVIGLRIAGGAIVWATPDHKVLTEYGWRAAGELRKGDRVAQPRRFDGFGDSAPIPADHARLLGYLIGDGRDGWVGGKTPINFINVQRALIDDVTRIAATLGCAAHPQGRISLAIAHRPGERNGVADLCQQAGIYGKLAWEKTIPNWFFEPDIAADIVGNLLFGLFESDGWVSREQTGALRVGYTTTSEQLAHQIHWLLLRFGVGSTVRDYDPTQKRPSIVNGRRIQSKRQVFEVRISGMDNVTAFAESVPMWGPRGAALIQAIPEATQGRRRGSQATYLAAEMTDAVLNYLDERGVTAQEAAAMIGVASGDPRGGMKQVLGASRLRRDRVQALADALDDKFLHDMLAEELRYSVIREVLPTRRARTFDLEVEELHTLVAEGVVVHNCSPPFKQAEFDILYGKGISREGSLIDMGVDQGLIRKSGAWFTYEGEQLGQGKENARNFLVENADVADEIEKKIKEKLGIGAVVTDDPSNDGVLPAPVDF
YopH inh – inhibitors of Yersinia enterocolitica YopH tyrosine phosphatase; fluorescence Ex485/Em525; inhibition, %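 (about 10 µM by stock and volumes)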; 0.16% of 140,000 active;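 active means inhibition of 50% or more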;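 further: controls were vehicle for no effect and minimum signal wells for full effect; inactives centre near -20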
Arbovirus inh repeat – also measured in Arbovirus inh; calls as there; inhibition, %; measured here: 10K subset replicate screen; many hits read low in the repeat;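 first of two repeat runs on a subset; 0% = infected and 100% = uninfected wells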
The depositor's hits bear a star; ? = inconclusive; / = not tested or not shown. A portion of the library; the hit share may differ from the screen's.

The first 2 records, to show the layout:
SMILES	Arbovirus inh	Mtb H37Rv	Mtb bLac sens	RecA intein inh	YopH inh	others
CN1CCN(C(=O)C2CCCN(c3ncnc4c3nc3n4CCCCC3)C2)CC1 (stereo not given)	/	/	5	-4.7	/
Cc1ccc(NC(=S)N(Cc2ccco2)C(C)c2cccs2)c(Cl)c1 (stereo not given)	3	6%	-10	2.1	/

Main list, from the start:
SMILES	Arbovirus inh	Mtb H37Rv	Mtb bLac sens	RecA intein inh	YopH inh	others
CN1CCN(C(=O)C2CCCN(c3ncnc4c3nc3n4CCCCC3)C2)CC1 (stereo not given)	/	/	5	-4.7	/
Cc1ccc(NC(=S)N(Cc2ccco2)C(C)c2cccs2)c(Cl)c1 (stereo not given)	3	6%	-10	2.1	/
CCOC(=O)N1CCC(NC(=O)c2ccccc2C(=O)O)CC1	/	-4%	-7	-0.5	/
NC(=O)C1CCCN(CCc2ccccc2)C1 (stereo not given)	-1	-4%	-4	-1.8	0
O=C(Nc1ccc(S(=O)(=O)N2CCOCC2)cc1)c1ccc2c(c1)S(=O)(=O)c1ccccc1C2=O	1	-3%	2	-1.0	/
Cc1ccc(S(=O)(=O)NCc2cccnc2)cc1C(=O)N1CCCC1	/	/	-8	-1.1	/
CC(NC(=O)C1CCCN(S(=O)(=O)c2cccc3nonc23)C1)c1ccccc1 (stereo not given)	-2	0%	-10	-2.3	-5
COc1ccc(OC)c(-n2c(-c3cnccn3)n[nH]c2=S)c1	6	-1%	3	-26	-35
Nc1ccc(-c2nnn(Cc3ccccc3F)n2)cc1	/	/	4	4.7	/
C=CCSc1nnc(NC(=O)c2ccc(NC(C)=O)cc2)s1	/	-7%	7	/	/
O=C(Nc1ccccc1C(=O)NCc1cccnc1)c1cccc([N+](=O)[O-])c1	-2	4%	-3	-3.7	/
C/C(=N/NC(=O)CC1N=C(Cc2ccccc2)NNC1=O)c1cccnc1 (stereo not given)	-3	-10%	-5	2.8	/
CCN(CC1CCCN(CCc2cccc(F)c2)C1)C(=O)c1cc(C)oc1C (stereo not given)	/	/	1	-3.6	/
O=C(Cn1ncc2c3ccccc3n(Cc3ccccc3)c2c1=O)N1CCN(c2ccccn2)CC1	/	/	-3	-0.4	/
COc1cc(C(=O)O)ccc1OCC(=O)N1CCOCC1	-1	0%	-6	1.8	-29
CNCCCOc1ccc(Cl)cc1C(C)(C)C	-31	3%	-7	0.4	/
COc1ccccc1C(=O)Nc1cc(Cl)ccc1-n1cncn1	/	/	25	0.8	/
COc1ccc(S(=O)(=O)Nc2ccc3oc(C)c(C(=O)O)c3c2)cc1	8	11%	14	-0.2	-43	Arbovirus inh repeat=9
COC(=O)c1cc(S(=O)(=O)N2CCN(c3cccc(Cl)c3)CC2)c[nH]1	/	/	3	-1.9	/
O=C(O)c1ccccc1SC1CC(=O)N(c2ccccc2)C1=O (stereo not given)	2	-5%	-1	5.5	-15
CC(C)CC(NC(=O)c1cccc(Cl)c1)C(=O)O (stereo not given)	4	-1%	-2	-0.3	/
CCOc1ccc(/C=C/C(=O)Nc2ccccc2C(F)(F)F)cc1	-9	4%	0	-0.4	-31
COCC(=O)NCc1nc2ccccc2n1Cc1ccccc1F	11	-2%	?	3.5	-28	Arbovirus inh repeat=3
CCn1c(=N)n(CC(O)c2cccs2)c2ccccc21 (stereo not given)	1	-4%	1	-0.1	/
CC(OC(=O)c1ccc2c(=O)n3c(nc2c1)CCCCC3)C(N)=O (stereo not given)	3	-7%	-8	-2.2	/
The listing continues.
SMILES	Arbovirus inh	Mtb H37Rv	Mtb bLac sens	RecA intein inh	YopH inh	others
COc1ccc(CCN2C(=O)CN=C2Nc2ccc(F)cc2)cc1OC	6	0%	-8	-1.7	/
COc1ccc(N2CCN(c3cc(C)c4ccc(C)cc4n3)CC2)cc1	-10	10%	4	2.9	/
COc1ccc(CNC(=S)Nc2cc(C)cc(C)c2)cc1	1	13%	-6	0.5	17
CCCn1nc2ccccc2c1P(=N)(N1CCOCC1)N1CCOCC1	2	-7%	-5	-2.7	-47	Arbovirus inh repeat=7
N#Cc1c(-n2cccc2/C=N/O)sc2c1CCCC2	-4	2%	4	5.0	-11
Cc1cc(C)nc(-n2ncc3c2CC(c2cccc(Cl)c2)CC3=O)n1 (stereo not given)	-14	-5%	0	0.3	/
O=c1oc2ccc3ccccc3c2cc1-c1nnc(-c2cccs2)o1	-13	?	100	-192	-26
O=C(NC1CC1)C1=C[C@H](c2ccc(C(F)(F)F)cc2)C[C@H](OCCCCO)O1	/	-4%	-5	-0.8	/
NC(=O)c1ccc(NC(=O)CCCc2nc(-c3ccccc3Cl)no2)cc1	7	-2%	6	3.4	-17
O=C(NC1CCCc2ccccc21)c1ccccc1OC(F)F (stereo not given)	/	/	-8	0.0	/
CCCCNc1nc(N(C)c2ccccc2)nc(-n2ccnc2)n1	-22	51%	100	2.9	-36
COc1ccccc1NC(=O)CSc1nnc(Cc2cccn2C)n1-c1ccc(F)cc1	4	14%	-6	2.2	-17	Arbovirus inh repeat=-7
CCCCOc1ccccc1C(=O)N(Cc1ccc(C)o1)C1CCS(=O)(=O)C1 (stereo not given)	/	/	-2	-0.9	/
CC12CCC(C(=O)N3CCc4ccccc43)(CC1=O)C2(C)C (stereo not given)	-2	-8%	-10	-1.6	-19
Cc1ccc(S(=O)(=O)NCC(=O)N2CCCC2C(=O)O)cc1 (stereo not given)	/	/	3	-2.0	/
Cc1ccc(-n2c(-c3ccc([N+](=O)[O-])cc3)nc3ccccc3c2=O)cc1	-3	3%	6	-1.4	-25
CCOc1ccc(NC(=O)C(=O)NCc2ccncc2)cc1	-1	11%	-6	-3.1	/
CC(=O)Nc1cccc(N=NN2CCOCC2)c1	-20	-2%	-3	-2.0	/
CCc1nc2ccc(C(=O)N3CCN(c4ccccc4F)CC3)cc2nc1CC	/	/	10	1.2	/
O=C(N/N=C/c1cc([N+](=O)[O-])c(N2CCOCC2)cc1N1CCOCC1)c1cccnc1	3	1%	-7	-3.9	/
O=C1CCC(c2ccccc2)(c2ccccc2)CC1	/	-8%	5	2.0	/
O=C(Oc1ccccc1)c1cccc2cccc(C(=O)Oc3ccccc3)c12	/	17%	/	6.1	/
COc1cccc(/C=C(/C(=O)OCC(=O)NCC2CCCO2)c2ccccc2)c1 (stereo not given)	5	11%	7	-0.8	/
O=C(Nc1cccc(F)c1)Nc1ccc2c(c1)C(=O)OC2	/	-3%	0	0.1	/
Cc1ccccc1C(=O)NC1CCN(CC(=O)Nc2ccc(N(C)C)cc2)CC1	/	/	-7	-3.8	/
(more compounds)
SMILES	Arbovirus inh	Mtb H37Rv	Mtb bLac sens	RecA intein inh	YopH inh	others
COc1cccc(-n2c(=S)[nH]c3c(oc4ccccc43)c2=O)c1	2	0%	-5	-5.7	/
Cc1ccccc1-c1nc(CS(=O)CC(=O)NCc2ccc3c(c2)OCO3)c(C)o1 (stereo not given)	/	/	3	-5.4	/
CN(C)C(=O)CSc1ncccc1-c1nc2ccccc2[nH]1	/	/	2	-1.4	/
COc1ccc(C2=NN(C(=O)CN3CCOCC3)C(c3nc4ccccc4[nH]3)C2)cc1 (stereo not given)	3	0%	-4	1.0	/
CNC(=S)N/N=C(\C)c1ccc2c(c1)OCO2	0	-5%	7	-1.9	/
Cn1c(CNC(=O)c2ccco2)nnc1SCC(=O)Nc1cccc(Br)c1	9	-5%	5	3.8	-14
COc1ccc(/C=C(\NC(=O)c2ccccc2)C(=O)OCC2CCCN3CCCCC23)cc1OC (stereo not given)	-3	-3%	-3	-0.8	/
Cc1ccc(-c2nn(CC(=O)Nc3ccc4c(c3)nc3n4CCOC3)c(=O)c3ccccc23)cc1	-16	-6%	-4	1.7	-34
COc1ccc(N(Cc2cc3cc(OC)ccc3[nH]c2=O)C(=O)C2CCCO2)cc1 (stereo not given)	4	-7%	-1	2.4	-49
O=C(COC(=O)c1cc([N+](=O)[O-])ccc1N1CCOCC1)Nc1ccc(Cl)cn1	/	/	-5	4.7	/
C=CCOc1ccc(CNc2ccc3[nH]c(=O)[nH]c3c2)cc1OCC	6	10%	-9	-3.6	/
COc1cc(NC(=O)CC2NCCNC2=O)cc(OC)c1 (stereo not given)	12	2%	-10	-2.2	-26
CCOc1ccccc1CNC(=O)C1CCN(c2nn3c(=O)cc(C)nc3s2)CC1	/	/	-1	-0.1	/
CC(=O)c1ccc(NC(=S)NCCc2ccccn2)cc1	4	-13%	-5	0.6	-12
CC(Nc1cccc2ccccc12)C(=O)N/N=C/c1ccc([N+](=O)[O-])cc1 (stereo not given)	1	8%	5	4.0	-18
Cc1cccc2sc(N(CCCN(C)C)C(=O)c3ccco3)nc12	-4	1%	1	-0.7	/
CCc1ccc(NC(=O)c2ccc(S(=O)(=O)NCc3cccnc3)cc2)cc1	/	/	95	1.3	/
CC1C2Cn3c(nc4ccccc43)C1N(C)O2 (stereo not given)	/	-6%	-5	3.7	/
CCOC(=O)Cn1c(=O)c2c(nc(N3CCCCC3)n2Cc2ccccc2)n(C)c1=O	-7	14%	-3	/	-48
Cc1ccccc1CSc1nnc2ccc(-c3ccncc3)nn12	6	1%	-3	-0.2	/
Clc1cccc(N=NN2CCOCC2)c1Cl	/	-7%	3	0.2	/
Cc1ccc(Nc2nnc(SCn3nnc4ccccc4c3=O)s2)cc1	7	1%	-14	4.7	3
Cc1ccc(C)c(S(=O)(=O)N2CCN(C(=O)CCNS(=O)(=O)c3ccccc3)CC2)c1	/	/	-8	2.5	/
O=C(NCc1ccc2c(c1)OCO2)c1ccc2c(c1)OCO2	/	8%	4	-2.3	/
Cc1ccccc1NS(=O)(=O)c1cccc(C(=O)Nc2cccc(C(=O)O)c2)c1	/	/	1	-0.5	/

Random excerpt: 4 entries already listed, in no set order.
SMILES	Arbovirus inh	Mtb H37Rv	Mtb bLac sens	RecA intein inh	YopH inh	others
Cn1c(CNC(=O)c2ccco2)nnc1SCC(=O)Nc1cccc(Br)c1	9	-5%	5	3.8	-14
COc1cccc(-n2c(=S)[nH]c3c(oc4ccccc43)c2=O)c1	2	0%	-5	-5.7	/
Cc1ccccc1CSc1nnc2ccc(-c3ccncc3)nn12	6	1%	-3	-0.2	/
COc1ccc(/C=C(\NC(=O)c2ccccc2)C(=O)OCC2CCCN3CCCCC23)cc1OC (stereo not given)	-3	-3%	-3	-0.8	/

Additional entries.
SMILES	Arbovirus inh	Mtb H37Rv	Mtb bLac sens	RecA intein inh	YopH inh	others
O[C@@H]1CN(C2CCCCC2)CC[C@H]1N1CCN(CCc2ccccc2)CC1	/	/	-7	-3.6	/
COc1cc(C=O)ccc1Oc1cnccn1	12	4%	2	0.6	/
COc1ccc(C(C)=O)cc1COC(=O)c1cnc(Cl)c(Cl)c1	5	17%	94	2.1	/
Cc1ccc(C)c(NS(=O)(=O)c2cc(C(=O)N3CCc4ccccc4C3)ccc2Cl)c1	-18	3%	-4	10	-25
Cc1ccc(/C=C/C(=O)Nc2ccc(S(=O)(=O)Nc3cc(C)nc(C)n3)cc2)cc1	/	/	60	1.6	/
CC12CCC(=O)N1C(C(=O)NNC(=O)c1ccc(F)cc1)CS2 (stereo not given)	/	/	-9	-1.4	/
O=C(Nc1ccc(NC(=O)c2ccccc2F)cc1)c1ccccc1F	/	/	6	-3.8	/
Cc1ccc(C)c(CN2C(=O)CSc3ccc(C(=O)NCCN4CCOCC4)cc32)c1	/	/	2	0.0	/
CCn1c(SCC(=O)NC2CC2)nnc1-c1ccncc1	/	/	-22	1.4	/
CCOP(=O)(OCC)C(NC(=O)Nc1ccc(Cl)cc1)C(=O)N(CC)CC (stereo not given)	-2	-7%	3	-0.6	-18
Cn1cnnc1SCC(=O)c1ccc(O)c(O)c1	3	-4%	3	/	/
COc1ccc(CN2CCC(Oc3ccc(C(=O)NCc4ccccn4)cc3)CC2)c(F)c1	/	/	-12	-0.4	/
Cc1cccc(NC(=O)N2C3CCCC2CC(NC(=O)C(C)(C)C)C3)c1 (stereo not given)	/	/	-2	-3.0	/
CCOC(=O)c1c(NC(=O)COC(=O)c2ccc(O)cc2)sc(C(=O)N(C)C)c1C	6	-11%	8	1.7	/
CC(Cc1cccs1)NC(=O)Nc1ccc(F)cc1 (stereo not given)	12	/	-2	1.4	-4
Nc1cc(S(=O)(=O)N2CCCCC2)ccc1N1CCOCC1	-21	-1%	2	0.6	/
Cc1cc2c(c(SCC#N)n1)C(=O)OC2	9	3%	-1	-1.9	/
CC(=O)Nc1cccc(C(=O)N2CCN(S(=O)(=O)c3ccc4ccccc4c3)CC2)c1	/	/	1	1.7	/
O=C(CSc1ccc(Cl)cc1)N1CCCC1	1	2%	-5	-1.3	/
COc1ccc(CNC(=O)C(OC(=O)c2cccs2)C(C)C)cc1 (stereo not given)	/	/	3	-0.2	/
O=C(O)c1cccnc1Sc1ccccc1	-6	-12%	-5	1.5	-31
Cc1ccc(C(C[N+](=O)[O-])Sc2ccc(N)cc2)cc1 (stereo not given)	/	0%	82	-2.6	/

High-throughput results: PubChem BioAssay, several laboratories
